GIRK2 act: GIRK2 channel activation; P48051; HEK293-GIRK2 thallium flux, Thallos fluorescence; calls only for hits at 25 µM; actives 0.05% (n = 63,000);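 active = among the strongest 0.2% of first-round signals and kept after retests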;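 also: first round at about 10 µM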
Target sequence (P48051 whole entry, looked up): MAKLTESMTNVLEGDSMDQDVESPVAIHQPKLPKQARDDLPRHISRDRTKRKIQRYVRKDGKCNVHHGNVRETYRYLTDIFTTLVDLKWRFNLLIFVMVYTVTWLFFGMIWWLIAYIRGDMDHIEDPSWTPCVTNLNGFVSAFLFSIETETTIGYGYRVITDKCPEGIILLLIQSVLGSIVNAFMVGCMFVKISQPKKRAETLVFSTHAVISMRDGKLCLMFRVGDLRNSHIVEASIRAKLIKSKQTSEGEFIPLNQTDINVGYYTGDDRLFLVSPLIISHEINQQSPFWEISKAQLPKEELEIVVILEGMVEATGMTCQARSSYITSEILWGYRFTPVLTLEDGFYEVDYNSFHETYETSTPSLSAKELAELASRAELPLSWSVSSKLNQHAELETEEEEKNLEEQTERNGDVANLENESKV
Calls only; i = inactive; + = active, no number.

SMILES	GIRK2 act
COc1ccc(OCC(=O)Nc2ccc3oc(=O)ccc3c2)cc1	i
O=C(Cn1c(=O)oc2ccccc21)N1CCC(c2nnc(-c3ccco3)o2)CC1	i
CN(CC(=O)NC1CC(=O)N(C2CC2)C1)S(C)(=O)=O (centres undefined)	i
COc1ccccc1-n1c(SCc2c(C)noc2C)nc2ccsc2c1=O	i
Cc1cc(C)n(CC(=O)Nc2cccc(Cl)c2)c(=O)c1-c1nc(-c2ccc(F)cc2)no1	i
Cc1ccc(Cl)c(-n2nnc(C(=O)Nc3ccccc3F)c2C)c1	i
O=C(Cn1cnc2ccccc2c1=O)N1CCCC(c2nnc(-c3cccs3)o2)C1 (centres undefined)	i
COc1cc(NC(=O)COc2ccc(C(C)=O)cc2OC)ncn1	i
Cc1oc(-c2cccc([N+](=O)[O-])c2)cc1C(=O)Nc1ccc(Br)cc1	i
O=c1ccc(-n2cccn2)nn1CCNS(=O)(=O)c1ccc(Cl)s1	i
COc1ccccc1CNC(=O)CSc1nccc(N2CCCC2)n1	i
COc1ccccc1NC(=O)Cn1nc(C2CCCN(S(C)(=O)=O)C2)n(C)c1=O (centres undefined)	i
O=C(NC(=S)NCC1CCCO1)c1ccccc1 (centres undefined)	i
Cn1nc(CNC(=O)c2ccc(OC(F)(F)F)cc2)c2c1CCCC2	i
COc1ccc(-c2noc(-c3c(SC)nn(CC(=O)Nc4c(C)cccc4C)c3N)n2)cc1OC	i
O=C(CSC1=NNC2C3CC(c4ccc(Cl)cc4)NN3C=CN12)c1ccccc1F (centres undefined)	i
COc1ccc(C)cc1NC(=O)CSc1nccn1-c1ccc(C(=O)NCc2ccccc2)cc1	i
COc1ccc(S(=O)(=O)NCC2(c3ccc(F)cc3)CC2)cc1OC	i
O=C(c1cc(-c2ccc(F)cc2)n[nH]1)N1CCN(Cc2csc(-c3ccccc3)n2)CC1	i
O=C(Nc1ccccc1)c1cc(-c2ccncc2)nc2ccccc12	i
COc1ccc(S(=O)(=O)Nc2ccc(Nc3ccc(C)nn3)cc2)c(C)c1C	i
COc1cccc(Nc2cc(C(=O)N3CCSCC3)nc3c(OC)cccc23)c1	i
CCOC(=O)c1sc(NC(=O)c2nc3ccccc3s2)cc1C	i
Cc1nnc(C2CCCN(S(=O)(=O)N(C)C)C2)s1 (centres undefined)	i
COc1cccc(-c2csc(-c3nnn(-c4cc(Cl)c(OC)cc4OC)c3N)n2)c1	i
COc1cc(-c2nc3nc4ccccc4nc3n2CC2CCCO2)cc(OC)c1OC (centres undefined)	i
O=C1CCc2ccc(OCC(=O)N3CCN(c4ccc(F)cc4)CC3)cc21	i
COc1ccc(S(=O)(=O)N2CCCOC2CNC(=O)C(=O)NCCC(C)C)cc1 (centres undefined)	i
COc1ccc2c(=O)c3c(oc2c1)C(=O)N(CCCN(C)C)C3c1ccc(C(C)C)cc1 (centres undefined)	i
O=C(CSC1=NNC2C3CC(c4ccc(Cl)cc4)NN3C=CN12)N1CCCc2ccccc21 (centres undefined)	i
O=C(c1ccc(Br)cc1)N1CCC2(O)CCCCC2C1 (centres undefined)	i
Cc1ccccc1NC(=S)NC(=O)C12CC3CC(C)(CC(C)(C3)C1)C2	i
O=C(COc1ccccc1)Nc1ccc(N2CCCS2(=O)=O)cc1	i
COCCN(Cc1ccoc1)C(=O)c1cc(-c2cc(OC)ccc2OC)nn1C	i
NC(=O)c1ccccc1NC(=O)c1csc(Nc2ccccn2)n1	i
O=C(NCC#CCN1CCOCC1)c1cc(-c2ccc3c(c2)OCO3)n[nH]1	i
COCCn1c(SCC(=O)Nc2ncn[nH]2)nc2ccsc2c1=O	i
COCCNC(=O)CSc1nnc2c(=O)n(Cc3ccccc3F)ccn12	i
COC(=O)c1ccccc1NC(=O)Cn1ncn2nc(-c3ccc(C)c(C)c3)cc2c1=O	i
CON(C)C(=O)C1CSCCC(=O)N1 (centres undefined)	i
Cc1noc(C)c1CCC(=O)N1CC(c2nc(-c3ccccn3)no2)C1	i
Cc1cc(NC(=O)Cn2cnc3ccccc32)no1	i
Cc1ccc(-c2noc(-c3ccc(=O)n(Cc4cccc(F)c4)n3)n2)cc1	i
Cc1ccccc1NC(=O)CCc1ccc(-c2ccccc2)o1	i
Cc1ccccc1NC(=O)c1nnn(Cc2nc(-c3ccc(OC(C)C)cc3)oc2C)c1N	i
O=C(CN1CCN(C(=O)CSc2ccc(F)cc2)CC1)c1cccs1	i
Cc1nccn1-c1ncc(NC(=O)COc2ccc(Cl)cc2)cn1	i
CC(=O)Nc1ccc(S(=O)(=O)NCCc2cc(C)no2)cc1	i
COc1ccc(OCC(=O)Nc2cc(C)nn2-c2nc3c(cnn3-c3ccccc3)c(=O)[nH]2)cc1	i
COc1cccc2sc(OC3CN(C(=O)c4cnn(-c5ccccc5)c4C)C3)nc12	i
O=S(=O)(c1cccc(-c2nnc(SCc3ccccc3)o2)c1)N1CCCCC1	i
COc1ccc(CCNc2oc(-c3ccc(S(=O)(=O)N4CCCCC4)cc3)nc2C#N)cc1	i
CCOC(=O)NCC1(O)CCOc2ccccc21 (centres undefined)	i
Cc1cc(C)c(NC(=O)NC(=O)c2ccc(F)cc2)c(C)c1	i
COc1ccc(N(C)S(=O)(=O)c2ccsc2-c2nc(-c3ccccc3C)no2)cc1OC	i
Cc1cccc(N2C(=O)N(c3ccc([N+](=O)[O-])cc3)C3CS(=O)(=O)CC32)c1C (centres undefined)	i
CCOC(=O)c1sc(NC(=O)Nc2ccc3c(c2)OCO3)nc1C	i
O=C(CCCc1ccccc1)N(Cc1ccsc1)CC(F)(F)F	i
CC(C)c1ccc(NC(=O)C(=O)NCCC(O)C2CC2)cc1 (centres undefined)	i
O=S(=O)(NCCC(O)c1ccoc1)C1CC1 (centres undefined)	i

(continued)
SMILES	GIRK2 act
CCc1nnc(NC(=O)c2c[nH]c3ccccc3c2=O)s1	i
Cc1nc(C)c(-c2ccc(=O)n(CCNC(=O)c3c(-c4ccccc4Cl)noc3C)n2)s1	i
Cc1cc(C(=O)Nc2nc(C(=O)NCCc3cccs3)co2)no1	i
O=C(c1cccc(Cl)c1)N1CCN(S(=O)(=O)c2cc3c4c(c2)CCC(=O)N4CCC3)CC1	i
CN(C)CCNC(=O)c1cc(-c2ccccn2)nc2ccccc12	i
Oc1ccc(-c2[nH]ncc2Oc2ccccc2Br)c(O)c1	i
O=C(N1CCC2(CC1)OCCCO2)C1(c2ccc(F)cc2)CC1	i
Cc1noc(-c2cccnc2N2CCC(NC(=O)C3CC3)C2)n1 (centres undefined)	i
Cc1cccc(-c2nc(Cn3nnc(C(=O)Nc4cc(F)ccc4C)c3N)c(C)o2)c1	i
COc1cccc2sc(OC3CN(C(=O)/C=C/c4cccs4)C3)nc12	i
COc1cc(NC(=O)Cn2c(C)nc3c(sc4nc(C)cc(C)c43)c2=O)cc(OC)c1OC	i
Cc1nc(-c2ccccc2F)sc1CNC(=O)c1ccc2n[nH]nc2c1	i
COc1ccccc1CNC(=O)c1nn(-c2ccc(C)cc2)c(OC)cc1=O	i
Nc1c(C(=O)NC2CCCCC2)sc(=S)n1-c1ccc(Cl)cc1	i
O=C(N1CCC(CSc2ccccn2)CC1)C1(c2cccs2)CCCC1	i

Retrieved by compound from above, six records:
SMILES	GIRK2 act
Cc1cc(C(=O)Nc2nc(C(=O)NCCc3cccs3)co2)no1	i
Oc1ccc(-c2[nH]ncc2Oc2ccccc2Br)c(O)c1	i
O=C(N1CCC(CSc2ccccn2)CC1)C1(c2cccs2)CCCC1	i
Cc1nc(-c2ccccc2F)sc1CNC(=O)c1ccc2n[nH]nc2c1	i
O=C(c1cccc(Cl)c1)N1CCN(S(=O)(=O)c2cc3c4c(c2)CCC(=O)N4CCC3)CC1	i
Cc1cccc(-c2nc(Cn3nnc(C(=O)Nc4cc(F)ccc4C)c3N)c(C)o2)c1	i

Continuation.
SMILES	GIRK2 act
CCc1ccccc1NC(=O)C(=O)NCC(c1ccc(F)cc1)N1CCOCC1 (centres undefined)	i
O=C(C1COc2ccccc2O1)N1CCCC(c2nnc(-c3ccccc3F)s2)C1 (centres undefined)	i
CCCCC(CC)CNc1nc2c(c(=O)[nH]c(=O)n2C)n1CC(C)O (centres undefined)	i
CCc1ccc(N(C)S(=O)(=O)c2ccsc2C(=O)Nc2cc(OC)c(OC)c(OC)c2)cc1	i
Cc1sc(NC(=O)c2ccc3c(c2)OCO3)nc1-c1ccc2c(c1)N(C)C(=O)CO2	i
Cc1ccc(NC(=O)CN2C(=O)NC3(CCCC3)C2=O)cc1Cl	i
Cc1ccc(C(C)C)c(OCC(O)Cn2c(N3CCC(C)CC3)nc3c2c(=O)n(C)c(=O)n3C)c1 (centres undefined)	i
O=C(Nn1cnc2c(cnn2-c2ccccc2)c1=O)c1ccc(Br)cc1	i
COC(=O)c1cccc(NC(=O)c2sccc2S(=O)(=O)N2CCN(c3ccccc3)CC2)c1	i
Cc1cc(C)n(-c2ccnc(N3CCC(C(=O)N4CCC5(CC4)OCCO5)CC3)n2)n1	i
COc1cc(NC(=O)c2cc(=O)c(OC)co2)cc(OC)c1OC	i
Cc1ccccc1OCC(=O)Nc1cccc(N2CCCS2(=O)=O)c1	i
COc1cc(NC(=O)Cn2c(C)nc3c(c2=O)CCN(Cc2ccccc2)C3)cc(OC)c1	i
COCCc1nnc(NC(=O)C(c2ccccc2)c2ccccc2)o1	i
CCOc1ccc(-n2cc(C(=O)OCC(=O)OC)c3ccccc3c2=O)cc1	i
Cn1c(CN2CCN(C(=O)Nc3ccccc3C(F)(F)F)CC2)nc2ccccc21	i
O=C(NCCc1ccccc1)C(=O)NCC1(CO)CC1	i
Cc1cccc(-c2noc(CSc3nc4ccsc4c(=O)n3C3CC3)n2)c1	i
O=C(c1ccc2c(=O)n(-c3ccccc3)c(=O)[nH]c2c1)N1CC=C(c2ccccc2)CC1	i
CC(C)NC(=O)Cn1cccc(S(=O)(=O)N2CCCCCC2)c1=O	i
CCOc1ccc(-n2cc(C(=O)OCC(=O)OC(C)C)c3ccccc3c2=O)cc1	i
COc1ccccc1NC(=O)c1cn(Cc2ccc(NC(=O)c3ccccc3)cc2)cn1	i
O=C(CNC(=O)c1ccc(=O)[nH]c1)NCc1ccc(OCc2ccccc2)cc1	i
CCOC(=O)N1CCN(C(=O)c2ccc(-n3cncn3)nn2)CC1	i
CC1CC(C)CN(c2nccn3c(=O)n(CC(=O)Nc4ccc(F)c(Cl)c4)nc23)C1 (centres undefined)	i
C=C1CCC2C(C)(C(=O)O)CCCC2(C)C1CC/C(=C\CO)CO (centres undefined)	i
O=C(C(c1ccccc1)c1ccccc1)N1CC(c2nc(-c3ccco3)no2)C1	i
COc1ccc(Cn2cnc3c4ccccc4n(CC(=O)NCc4ccc(C)cc4)c3c2=O)cc1	i
CN(C)S(=O)(=O)N1CCCC(c2nnc(-c3cccs3)o2)C1 (centres undefined)	i
COc1ccc(S(=O)(=O)N2CCCOC2CNC(=O)C(=O)NCC(C)C)cc1 (centres undefined)	i

Sorted by number of heavy atoms (lowest first): five of the compounds above.
SMILES	GIRK2 act
CCCCC(CC)CNc1nc2c(c(=O)[nH]c(=O)n2C)n1CC(C)O (centres undefined)	i
Cc1noc(C)c1CCC(=O)N1CC(c2nc(-c3ccccn3)no2)C1	i
COc1ccc(S(=O)(=O)N2CCCOC2CNC(=O)C(=O)NCC(C)C)cc1 (centres undefined)	i
COc1cccc2sc(OC3CN(C(=O)c4cnn(-c5ccccc5)c4C)C3)nc12	i
O=C(c1cc(-c2ccc(F)cc2)n[nH]1)N1CCN(Cc2csc(-c3ccccc3)n2)CC1	i

Carrying on.
SMILES	GIRK2 act
COC(=O)N1CCc2ccc(F)cc2C1C(=O)NCCc1ccccc1OC (centres undefined)	i
CCN1CCN(c2cc3c(cc2F)c(=O)c(C(=O)O)cn3C2CC2)CC1	i
O=C(Nc1ccnc2ccc(Cl)cc12)c1cccc(S(=O)(=O)N2CCOCC2)c1	i
O=C(Cn1nc(-c2ccc(F)cc2)ccc1=O)Nc1cc(N2CCCC2)ncn1	i
Cc1cccc(OCC(=O)N2CCC(Oc3cnccn3)CC2)c1	i
COc1ccc(CNC(=O)C2CCCN(c3nc4c(-c5ccccc5)csc4c(=O)[nH]3)C2)cc1 (centres undefined)	i
CN(CC(=O)Nc1ccc(C(N)=O)cc1)c1nc2c(F)cccc2s1	i
COc1ccc(NC(=O)Cn2cc(C(=O)c3ccccc3)c(=O)c3cc4c(cc32)OCO4)c(OC)c1	i
O=C(Nc1nc2c(F)cccc2s1)Nc1ccccc1Cl	i
COc1ccc(C(=O)NCc2ccc3[nH]c4c(c3c2)CCCC4)cc1	i
COCCCNC(=O)CSc1nc(-c2ccc(F)cc2)[nH]c1-c1ccc(F)cc1	+
COc1cc(NC(=O)C2Nc3cc(C)ccc3S(=O)(=O)N2)cc(OC)c1OC (centres undefined)	i
COc1ccc(C(=O)/C=C/c2cc(OC)ccc2OC)cc1	i
Cc1ccc(NS(=O)(=O)c2n[nH]c(C)c2C(=O)Nc2ccc(F)c(Cl)c2)cc1	i
CC(C)S(=O)(=O)NCC(Cc1cccc(F)c1)N1CCNC1=O (centres undefined)	i
CCOCCn1c(=O)c2c(nc3n(-c4ccc(C)cc4C)c(-c4ccccc4)cn23)n(C)c1=O	i
O=C(N1CCn2c1nc1ccccc12)C1(c2cccs2)CCCC1	i
COc1ccc(N2CCN(c3nc4c(c(=O)[nH]c(=O)n4C)n3Cc3ccc(F)cc3)CC2)cc1	i
CSc1ccc(CNC(=O)c2nnn(-c3ccccc3C)c2-c2ccncc2)cc1	i
COc1ccccc1OCC#CCNC(=O)c1ccno1	i
CCSc1nnc(NC(=O)c2nnn(-c3nc4c(s3)CCCC4)c2C)s1	i

Assay outcomes (PubChem)

A portion of the library (hit frequency here may not be typical).
